AmpC nodet inh – AmpC beta-lactamase inhibition, detergent-free assay; P00811; AID 585; AmpC nitrocefin hydrolysis, absorbance 480 nm, no detergent; potencies from a single point are estimates; actives 1.8% (n = 71,000); Potency, µM (titrated, usually from 28.7 µM), without a hit: top-dose activity change, negative = inhibition; active = falling curve, for most hits resting on a single point; inconclusive = weak or doubtful change; inactive = flat or rising curve; further: % of control where 0% means no effect; about half of the hits show no inhibition at the top dose; a quarter of the inactives give rising signals
Target sequence (P00811 whole entry, looked up): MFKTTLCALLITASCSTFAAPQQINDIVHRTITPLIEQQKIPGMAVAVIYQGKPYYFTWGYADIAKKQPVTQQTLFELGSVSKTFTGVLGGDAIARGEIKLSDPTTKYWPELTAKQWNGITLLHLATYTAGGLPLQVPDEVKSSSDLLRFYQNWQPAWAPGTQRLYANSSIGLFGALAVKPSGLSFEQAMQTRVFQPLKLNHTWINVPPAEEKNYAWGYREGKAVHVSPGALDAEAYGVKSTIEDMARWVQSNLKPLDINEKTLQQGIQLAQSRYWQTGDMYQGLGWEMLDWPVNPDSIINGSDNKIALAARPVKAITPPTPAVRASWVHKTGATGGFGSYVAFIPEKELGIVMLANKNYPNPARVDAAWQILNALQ
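Enzyme, pH 7.0 phosphate. Compound titrations were pre-incubated with AmpC for 15 min at room temperature before nitrocefin (stock 800 uM) addition; product formation was recorded at 480 nm every 20 s for 4 min.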
* = called active by the depositor; [ ] = another dose, or the depositor's remark. Potency means the concentration at half of the fitted maximal effect. An excerpt; count on the stated rates, not on these rows.

SMILES	AmpC nodet inh
Nc1ccc(C2CCCc3nonc32)c2nonc12 (stereo unspecified)	-22%
Cc1cccc2nc(=S)n(C(=O)c3ccco3)n12	-6%
CN(C)CCCN1C(=O)C(O)=C(C(=O)c2cccs2)C1c1ccccn1 (stereo unspecified)	1%
CCN1CCN(c2cc(C)c3cc(NC(=O)c4cnccn4)ccc3n2)CC1	56%
Brc1ccc(CSc2ncnc3nc[nH]c23)cc1	26%
Cc1ccccc1NC(=O)C1CC(=O)N(c2ccccc2F)C1 (stereo unspecified)	4%
Cc1ccc(C)c(CN2C(=O)C(C)Oc3ccc(C)cc32)c1 (stereo unspecified)	-9%
COC(=O)C1CCN(C(=O)COc2ccc(Cl)cc2)CC1	9%
O=C(c1ccco1)N1CCC2(CCCN(c3ncccn3)C2)CC1	18%
CC(C)(C)CC(C)(C)c1ccc(O)c(C[N+](C)(C)[O-])c1	19%[5.75 µM]
CC1=NC2(CCCc3c2no[n+]3[O-])N(O)C1(C)C (stereo unspecified)	0%
CCCc1cc(=O)n2[nH]c(NCc3ccc(Cl)cc3Cl)nc2n1	-10%
CCCC1CCC(C(=O)Nn2cnc3ccccc3c2=O)CC1 (stereo unspecified)	14%
CC(=O)Nc1ccccc1-c1nc2ccc(C(=O)N3CCN(c4ccccc4)CC3)cc2[nH]c1=O	111%
Cc1cccc(-n2c(O)c(C=NCc3cccnc3)c(=O)[nH]c2=O)c1C	6%
CC(C)(C)NC(=O)C(c1ccncc1)N(C(=O)CNC(=O)c1ccco1)c1ccc2c(c1)OCO2 (stereo unspecified)	11%
CCc1nnc(SCc2cn3c(C)cc(C)nc3n2)n1N	5%
Cc1ccnc(-n2c(-c3ccco3)nc3ccccc3c2=O)c1	2%
Cc1ccc(S(=O)(=O)O[C@H]2C[C@@H](C(C)(C)C)CC[C@@H]2c2ccccc2)cc1	-3%[5.75 µM]
Cc1cc(C)n2nnnc2c1C#N	-6%
COC(=O)[C@@H]1C[C@H]1[C@@H](NP(=O)(c1ccccc1)c1ccccc1)c1ccccc1	82%
Cc1cc(C)n(S(=O)(=O)c2cccc(Cl)c2Cl)n1	23%
COC(=O)c1nnn(CC(=O)Nc2cccc(Cl)c2)c1C(=O)OC	-3%
CC1CCCN(c2nc3c(c(=O)n(C)c(=O)n3C)n2CCSc2nc3ccccc3o2)C1 (stereo unspecified)	98%
O=C(c1ccco1)N1CCN(C(=O)C2CCCN(S(=O)(=O)Cc3ccccc3)C2)CC1 (stereo unspecified)	26%
CCNc1ncc2nc(-c3ccccc3)c(=O)n(Cc3ccc(F)cc3)c2n1	4%
CCCC(=O)N(Cc1cc2cc(C)ccc2[nH]c1=O)c1ccccc1OC	41%
CN1CCCN=C1/C=C\c1cccs1	2%[12.8 µM]
COC(=O)C(CCCCNC(=O)OCc1ccccc1)NC(=O)CN (stereo unspecified)	17%
COc1ccc(C(=O)COC(=O)CCN=C2NS(=O)(=O)c3ccccc32)cc1OC	-3%
CC(=O)Nc1ccc(S(=O)(=O)N2CCN(S(=O)(=O)N3CCCCCC3)CC2)cc1	30%
COc1ccc(NC(=O)c2ccc3c(=O)n(Cc4ccco4)c(=S)[nH]c3c2)c(OC)c1	-2%
COc1ccc(NC(=O)N2CCC(c3nc(-c4cccs4)no3)CC2)cc1	8%
Cn1ncc2c(Cl)ncnc21	4%[5.75 µM]
CCCN(CCC)S(=O)(=O)c1ccc(C(=O)N2CCC(=O)c3ccccc32)cc1	53%
CC[C@H]1[C@@H]2C[C@@H]3[C@@H]4N(C)c5ccccc5[C@@]45C[C@@H]([C@H]2[C@@H]5O)N3[C@@H]1O	6%
CCc1cccc2c(=O)c(C(=O)NCCN3CCOCC3)c[nH]c12	11%
COc1cccc(-n2c(Cc3cc(=O)[nH]c(=O)[nH]3)nnc2SCC(=O)N2CCCCCC2)c1	4µM*[single pt active]
CC(=O)c1cn(CC(=O)NCc2ccc3c(c2)OCO3)c2ccccc12	-9%
c1ccc(Cc2ccc(OCCn3cncn3)cc2)cc1	49%
CCOc1ccccc1C(=O)N1CCN(c2cccc(Cl)c2)CC1	69%
CC1CCCC(NC(=O)COC(=O)c2ccc(S(=O)(=O)N3CCOCC3)cc2)C1C (stereo unspecified)	45%
CCC(C(=O)N1CCOCC1)n1c(C(=O)OC)cc2occc21 (stereo unspecified)	14%
CCOc1ccc(C(C)=O)cc1CN1C(=O)NC2(CCCCC2C)C1=O (stereo unspecified)	20%
Cc1ccn2cc(CNS(=O)(=O)c3ccc(Cl)s3)nc2c1	6%
COC(=O)Nc1ccc(S(=O)(=O)N(C)CC(F)(F)C(F)F)cc1	-5%
CCC(C)(c1ccc(C(=O)OC)s1)c1ccc(C(=O)OC)s1	18%
O=c1c(N2CCOCC2)nsn1Cc1ccccc1	1%
CC(C)c1ccc(C(O)c2cnc(C(C)C)n2C)cc1 (stereo unspecified)	21%
Cc1cc2cc(CCNC(=O)c3c(-c4ccccc4Cl)noc3C)c(=O)[nH]c2cc1C	-1%
CC(C)Sc1nnc(Nc2ccccc2)s1	-18%
CCOC(=O)C1(C)NC(c2ccccc2F)C2C(=O)N(c3cccc(C(C)=O)c3)C(=O)C21 (stereo unspecified)	31%
CCN(CCNC(=O)C1CCN(c2nnc(-n3cccc3)s2)CC1)c1ccccc1	111%
CC(C)(O)[C@H]1[C@H]2OC(=O)[C@@H]1[C@]1(O)C[C@H]3O[C@]34C(=O)O[C@H]2[C@]14C	4%
Cc1c(C)[n+](=O)c(-c2cccs2)c(C)n1[O-]	-2%
O=S(=O)(Nc1ccc2c(c1)OCCO2)c1cnc[nH]1	-10%
Cc1ccc(CNC(=O)C2CNc3cc(C)ccc3O2)cc1 (stereo unspecified)	15%
CN1CCN(CCCNC(=O)c2cn(C3CCCCC3)c(=O)c3c2c2ccccc2n3C)CC1	52%
NS(=O)(=O)c1ccc(NC(=O)CSc2nnc(Cc3cccs3)n2-c2ccccc2)cc1	-6%
CN(C(=O)COC(=O)c1ccccc1Nc1ccccc1)C1CCS(=O)(=O)C1 (stereo unspecified)	126%

Fetched by structure from above, two records:
SMILES	AmpC nodet inh
CC(C)(O)[C@H]1[C@H]2OC(=O)[C@@H]1[C@]1(O)C[C@H]3O[C@]34C(=O)O[C@H]2[C@]14C	4%
Cc1ccc(CNC(=O)C2CNc3cc(C)ccc3O2)cc1 (stereo unspecified)	15%

Part of the list above in order of count of non-hydrogen atoms, smallest number first:
SMILES	AmpC nodet inh
Cc1c(C)[n+](=O)c(-c2cccs2)c(C)n1[O-]	-2%
O=S(=O)(Nc1ccc2c(c1)OCCO2)c1cnc[nH]1	-10%
CC(C)c1ccc(C(O)c2cnc(C(C)C)n2C)cc1 (stereo unspecified)	21%
c1ccc(Cc2ccc(OCCn3cncn3)cc2)cc1	49%
Cc1ccc(CNC(=O)C2CNc3cc(C)ccc3O2)cc1 (stereo unspecified)	15%
CCC(C(=O)N1CCOCC1)n1c(C(=O)OC)cc2occc21 (stereo unspecified)	14%
CCOc1ccccc1C(=O)N1CCN(c2cccc(Cl)c2)CC1	69%
CCOc1ccc(C(C)=O)cc1CN1C(=O)NC2(CCCCC2C)C1=O (stereo unspecified)	20%
CN(C(=O)COC(=O)c1ccccc1Nc1ccccc1)C1CCS(=O)(=O)C1 (stereo unspecified)	126%
CC1CCCC(NC(=O)COC(=O)c2ccc(S(=O)(=O)N3CCOCC3)cc2)C1C (stereo unspecified)	45%
Cc1cc2cc(CCNC(=O)c3c(-c4ccccc4Cl)noc3C)c(=O)[nH]c2cc1C	-1%
CCOC(=O)C1(C)NC(c2ccccc2F)C2C(=O)N(c3cccc(C(C)=O)c3)C(=O)C21 (stereo unspecified)	31%
CN1CCN(CCCNC(=O)c2cn(C3CCCCC3)c(=O)c3c2c2ccccc2n3C)CC1	52%

(list continues)
SMILES	AmpC nodet inh
CC(=O)Nc1c(O)[nH]c2ccccc12	-6%
OCCN(Cc1ccccc1)CC1CC=CCC1 (stereo unspecified)	-3%
Brc1ccc2ncnc(Nc3ccc(N4CCOCC4)cc3)c2c1	36%
CCCn1c(SCc2ccccn2)nc2c1c(=O)n(C)c(=O)n2C	16%
CC1CCN(C(=O)CN2C(=O)c3ccccc3S2(=O)=O)CC1	9%
N#Cc1ccc(OCCN2C(=O)NC3(CCSC3)C2=O)cc1 (stereo unspecified)	1%
COc1ccc(C(=O)N2CCN(C(=O)c3ccco3)CC2)cc1	15%
COc1cc(-c2noc(-c3ccco3)n2)cc(OC)c1OC	31%
COC(=O)c1ccc(CSc2nc3ccccc3c(=O)n2-c2ccc(OC)c(OC)c2)o1	100%
O=C(NCCCn1ccnc1)Nc1ccc(Cl)c(Cl)c1	-17%
CCOCCCNC(=O)c1c(C)[nH]c(C(=O)OCC)c1C	2%
COc1ccc(NC(=O)C2CCC(=O)N2)cc1 (stereo unspecified)	0%
Cc1ccccc1-c1nccc(NCc2cccnc2)n1	14%
c1cc2c(cc1C1CCCN1)OCCCO2 (stereo unspecified)	0%
COc1ccc(N(CC(=O)NC2CCCCCC2)S(=O)(=O)c2c(C)nn(C)c2C)cc1	122%
Cc1nc2ccccc2c2oc(C(=O)NCCCN3CCC(C)CC3)cc12	8%
C/C=C1\C(=O)C[C@@H]2[C@@H]3CCC4=CC(=O)CC[C@@]4(C)[C@H]3CC[C@@]12C	56%
COc1ccccc1-c1ccc2ncnc(NCCN3CCOCC3)c2c1	89%
Cc1onc(-c2ccccc2)c1C(=O)Nc1nnc(N(C)Cc2ccccc2)s1	20%
c1ccc(CCn2nnnc2CN2CCC(n3nnc4ccccc43)CC2)cc1	70%
O=C(CNS(=O)(=O)c1cccc2nonc12)NCc1ccc(F)cc1	2%
CCCN[C@@H](C)C(=O)Nc1ccccc1C	1%[12.8 µM]
COc1cc(CCC(=O)N2CCN(c3ccc(N4CCOCC4)nn3)CC2)cc(OC)c1OC	46%
COc1ccc(Cn2c(N)c(C(=O)NCc3ccco3)c3nc4ccccc4nc32)cc1	71%
COC(=O)C1CCN(C(=O)c2sc3nc(-c4ccc(F)cc4)cn3c2C)CC1	91%
CCOc1ccc(-n2cnnn2)cc1S(=O)(=O)NCCc1ccc(OC)c(OC)c1	22%
O=c1cnc2cnc(Oc3ccccc3)nc2n1Cc1cccs1	36%
O=C1N2CCSC2=NC1(Nc1nccs1)C(F)(F)F (stereo unspecified)	2%
COc1cc(NC(=O)c2ccco2)c(OC)cc1NC(=O)Nc1ccccc1Cl	54%
COC(=O)c1ccc2c(c1)N(Cc1cc(C)ccc1C)C(=O)c1ccccc1S2=O (stereo unspecified)	4µM*[single pt active]
O=C1C2C3C=CC(C3)C2C(=O)N1c1cccc(N2C(=O)C3C4C=CC(C4)C3C2=O)n1 (stereo unspecified)	-6%
O=C1c2ccccc2C(=O)N1Cc1nc2ccccc2c(=O)n1-c1ccc(Br)cn1	48%
O=C(COc1ccccc1O)N1CCN(C(=O)c2ccco2)CC1	-11%
Cc1ccc(C(C(=O)NC(C)(C)C)N(C(=O)c2csnn2)c2ccccc2F)o1 (stereo unspecified)	34%
COC(=O)C(C)Sc1nnc(-c2ccncc2)o1 (stereo unspecified)	-5%
CC(C)(C)Nc1nc(OCC(F)(F)F)nc(OCC(F)(F)F)n1	10%
Cn1c(=O)n(C)c2cc(NS(=O)(=O)c3ccc4c(c3)CCCC4)ccc21	17%
CC(C)(C)c1ccc(O)c(CN(Cc2cc(C(C)(C)C)ccc2O)C2CCCCC2)c1	-4%[5.75 µM]
Cc1ccc(-c2nnc(CSc3nc4cc5c(cc4cc3C)OCO5)o2)cc1	-5%
O=S(=O)(c1ccc(S(=O)(=O)N2CCN3CCCC3C2)cc1)N1CCCC1 (stereo unspecified)	16%
O=C(NC1CCCCC1)N1CCC(n2c(=O)[nH]c3ccccc32)CC1	3.2µM*[single pt active]
CCOc1ccc(-c2nnc3ccc(SCc4ccc(C(=O)OC)o4)nn23)cc1	134%
C=CCN1C(=O)CSc2ccc(C(=O)N3CCC4(CC3)OCCO4)cc21	17%
CCOC(=O)CCCCC(=O)c1[nH]c(=O)[nH]c1CN1CCOCC1	3%
Cc1cc(NC(=O)CSc2nnc(Cn3c(=O)sc4ccccc43)n2-c2ccccc2C)no1	31%
COCC(C)NS(=O)(=O)c1ccc(NC(=O)C(Cc2ccccc2)NC(N)=O)cc1 (stereo unspecified)	-2%
CCN(CC)CP(=O)(c1ccccc1)c1ccccc1	-1%
Cn1c(SC/C=C/c2ccccc2)nnc1-c1ccco1	6%
O=S(=O)(Nc1cccnc1)c1cccc(C(F)(F)F)c1	-17%
CCCOc1ccc(-c2nnc(-c3ccncc3)o2)cc1	25%
Cc1cc(C)cc(-n2ccnc2SCC(=O)Nc2ccc3c(c2)OCCO3)c1	42%
O=C(NCCCN1CCOCC1)c1cc(-c2ccc(F)cc2)on1	0%
c1ccc(OCCSc2nnnn2C2CCCCC2)cc1	12%
COc1ccccc1NC(=O)C1CCCN(S(=O)(=O)c2cnc[nH]2)C1 (stereo unspecified)	-2%
CCCCn1c(SCC(=O)OC)nc2c1c(=O)n(C)c(=O)n2C	15%
O=C(Nc1ccccc1)OC[C@H](CN1CCCCC1)OC(=O)Nc1ccccc1	11%[12.8 µM]
Cc1ccccc1-c1nc(N2CCN(C)CC2)c2ccccc2n1	45%
c1ccc(Cn2c(CSc3nnnn3-c3ccccc3)nc3ccccc32)cc1	0%
CCc1ccc(NC2CC(=O)N(c3ccc(OC)cc3OC)C2=O)cc1 (stereo unspecified)	33%
COc1ccc(OC)c(/C=c2\sc3nc(-c4cccs4)nn3c2=O)c1	36%
Remaining list, next part.
SMILES	AmpC nodet inh
COc1ccc(CCNC(=O)CCN2C(=O)COc3ccc(C)cc32)cc1OC	48%
O=C1CC(N2CCN(c3ccc(F)cc3)CC2)C(=O)N1Cc1cccs1 (stereo unspecified)	33%
CCc1ccccc1N1CC23C=CC(O2)C(C(=O)OCC(C)C)C3C1=O (stereo unspecified)	41%
CCC(=O)N1c2ccc(S(=O)(=O)CCC(=O)NC3CCCC3)cc2CC1C (stereo unspecified)	15%

Source: PubChem
